FGF22 binding: binders of human FGF22 protein, primary screen, FGF22 synaptogenesis inhibitor project, biophysical, thermal shift, single point; recombinant FGF22 thermal shift, SYPRO orange fluorescence; percent of sucrose octasulfate shift, DMSO zero; calls only at 9.99 µM; hit rate 1.5% among 340,000; AID 651658, 2012;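 active means melting point raised past a set limit in the mean and every replicate; three in four hits are not shown here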
Target sequence (Q9HCT0 whole entry, looked up): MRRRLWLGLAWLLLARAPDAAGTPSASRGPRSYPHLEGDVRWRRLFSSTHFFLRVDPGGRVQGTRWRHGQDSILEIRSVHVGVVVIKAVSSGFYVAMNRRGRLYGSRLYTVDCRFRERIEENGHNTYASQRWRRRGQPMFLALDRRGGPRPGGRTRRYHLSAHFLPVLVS
AF4-AF9 inh: inhibitors of AF4 peptide binding to AF9, primary screen, biochemical, AlphaScreen, biotin-AF4 peptide, FLAG-AF9, single point | Protein AF-9 (Homo sapiens), P42568 | inhibition, % at 10 µM | hit rate 0.47% among 350,000;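 active means every replicate reaching a set inhibition limit, whatever the replicate mean, cut at about 25% in these data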;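 further: 0% = plate neutral control median and 100% = total signal loss; the record names both 10 and 1 µM as test concentration; the first replicate is given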
Target sequence (P42568 whole entry, looked up): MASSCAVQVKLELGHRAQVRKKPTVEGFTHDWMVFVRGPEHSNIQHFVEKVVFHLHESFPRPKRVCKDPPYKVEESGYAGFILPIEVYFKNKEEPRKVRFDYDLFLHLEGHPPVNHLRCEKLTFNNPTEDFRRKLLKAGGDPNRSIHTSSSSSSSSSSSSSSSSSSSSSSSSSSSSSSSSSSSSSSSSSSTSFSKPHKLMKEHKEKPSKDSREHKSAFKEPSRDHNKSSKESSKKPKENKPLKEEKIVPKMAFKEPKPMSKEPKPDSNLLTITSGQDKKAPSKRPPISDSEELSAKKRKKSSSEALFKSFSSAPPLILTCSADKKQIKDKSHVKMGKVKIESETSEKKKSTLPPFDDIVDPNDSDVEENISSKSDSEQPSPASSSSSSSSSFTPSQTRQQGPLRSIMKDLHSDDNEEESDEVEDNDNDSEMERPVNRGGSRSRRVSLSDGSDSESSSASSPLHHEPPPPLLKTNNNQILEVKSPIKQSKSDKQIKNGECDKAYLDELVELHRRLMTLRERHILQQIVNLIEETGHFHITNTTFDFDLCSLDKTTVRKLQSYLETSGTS
rRNA inh HTS: reduced GFP signal of wild-type E. coli, primary screen, bacterial rRNA inhibitor project, GFP/RFP fluorescence, OD600, single point; E. coli WT GFP vs humanized-ribosome RFP mutants, 24 h; active compounds read low; DMSO median 0, no signal -100; GFP signal change (wild-type ribosome), % (test concentration not listed); hit rate 1.6% among 350,000; AID 720706, 2013;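 active means significant combined selectivity score with lowered wild-type GFP, culture density cut under 30%, mutant RFP and density less affected; inactive means any of these conditions unmet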; further: one replicate is shown; some compounds called inactive have numbers as strong as hits
rRNA inh HTS OD600: recorded beside rRNA inh HTS, whose call it bears; OD600 change, %; measured here: OD600 growth;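 optical density of the mix in the first replicate; 0 = DMSO median and -100 = no signal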
rRNA inh HTS RFP: recorded beside rRNA inh HTS, whose call it bears; RFP signal change, %; measured here: RFP humanized mutant strains;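 first replicate; 0 = DMSO median and -100 = no signal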
* marks the source's active call; other numbers are inactive results; i = inactive; / = no result given. Some of the compounds tested; count on the stated rates, not on these rows.

FGF22 binding | AF4-AF9 inh | rRNA inh HTS | rRNA inh HTS OD600 | rRNA inh HTS RFP | molecule
i | -1.0 | 3 | -26 | 2.6 | CCOC(=O)C1CCCN(C(=O)c2cccnc2Oc2ccccc2)CC1 (centres undefined)
i | -7.2 | 5 | 0 | -0.6 | COCC(=O)N(C)C[C@H]1Oc2ncc(C#Cc3cccnc3)cc2C(=O)N([C@@H](C)CO)C[C@@H]1C
i | 0.3 | -5 | 2 | -1.6 | CCc1nc2ccc(C(=O)NCCC(C)C)cn2c1N(CC)CCOC
i | 5.5 | -3 | -8 | 3.6 | COc1ccccc1-c1cnc2c(c1)C(=O)N([C@@H](C)CO)C[C@H](C)[C@@H](CN(C)Cc1ccc(F)cc1)O2
i | 0.2 | 10 | 16 | -2.9 | OC[C@@H]1CN(Cc2ccccc2)C[C@H](n2ccc3c(N4CCCC4)ncnc32)O1
i | -0.4 | -1 | -11 | 3.1 | COc1ccccc1-c1cnc2c(c1)C(=O)N([C@H](C)CO)C[C@H](C)[C@H](CN(C)Cc1ccccc1)O2
i | -0.5 | -1 | 15 | -5.1 | COc1cc(NS(=O)(=O)c2ccc(C)cc2)c2c(c1N)C(=O)c1ccccc1C2=O
i | -4.3 | 2 | 3 | 1.4 | CO[C@H]1CN(C)C(=O)c2ccc(NC(=O)CC(F)(F)F)cc2OC[C@H](C)N(S(=O)(=O)c2cn(C)cn2)C[C@H]1C
i | -1.6 | 9 | -3 | 2.3 | COc1ccc(-c2oc3c(c2C(=O)OCCO)C(OCCO)CCC3)cc1 (centres undefined)
i | -0.5 | 2 | -1 | 0.4 | C[C@@H]1CN([C@@H](C)CO)C(=O)CCCn2nncc2CO[C@@H]1CN(C)CC1CC1
i | -0.7 | -4 | -6 | -0.8 | Cc1ccc(S(=O)(=O)N[C@@H]2CC[C@@H](CCn3cc(C4(O)CCCC4)nn3)O[C@@H]2CO)cc1
i | 0.5 | -8 | -47 | 15 | COc1ccccc1C#Cc1ccc([C@@H]2[C@H](C#N)N(C(=O)C3CCC3)[C@H]2CO)cc1
i | 2.0 | 2 | 0 | -0.9 | C[C@@H]1CCCCO[C@H](CN(C)C(=O)CCC(F)(F)F)[C@@H](C)CN([C@H](C)CO)C(=O)c2cc(NS(=O)(=O)c3cn(C)cn3)ccc2O1
i | 33* | -6 | -10 | 5.2 | C[C@H]1CCCCO[C@H](CN(C)Cc2ccc(C(F)(F)F)cc2)[C@@H](C)CN([C@@H](C)CO)C(=O)c2cc(N(C)C)ccc2O1
i | 0.7 | -6 | -2 | 0.2 | O=S(=O)(N[C@H]1CC[C@H](CCn2cc(-c3ccc(F)cc3)nn2)O[C@H]1CO)c1ccccc1F
i | -1.6 | 4 | 23 | -7.1 | O=C(C[C@H]1CC[C@@H]2[C@H](COC[C@@H](O)CN2CCc2ccccc2)O1)NCc1ccccc1
i | -2.2 | -3 | -2 | -2.1 | C[C@@H]1CN([C@@H](C)CO)C(=O)c2cc(C3=CCCC3)cnc2O[C@@H]1CN(C)C(=O)Nc1ccccc1
i | -4.2 | 4 | 3 | 1.6 | CCC(=O)N1CC2(CCN(C(=O)CN3CCOCC3)CC2)c2c([nH]c3cc(OC)ccc23)[C@@H]1CO
i | -1.0 | -2 | -3 | -2.4 | CO[C@H]1CN(C)C(=O)c2ccc(NC(=O)C3CCC3)cc2OC[C@@H](C)N(Cc2cccnc2)C[C@@H]1C
i | -22 | 1 | -1 | 0.4 | CN(C)C(=O)C[C@@H]1C=C[C@@H](NC(=O)Nc2cccc(F)c2)[C@H](CO)O1
i | -1.0 | -1 | 0 | 0.6 | COc1cccc(S(=O)(=O)N[C@H]2C=C[C@@H](CC(=O)NCc3ccncc3)O[C@H]2CO)c1
i | 2.2 | 1 | -8 | 1.3 | Cc1noc(C)c1S(=O)(=O)N(C)C[C@@H]1OCCCC[C@H](C)Oc2ccc(NC(=O)C3CCCCC3)cc2C(=O)N([C@H](C)CO)C[C@@H]1C
i | 0.0 | 1 | -1 | 0.0 | C[C@H](CO)N1C[C@H](C)[C@H](CN(C)Cc2ccc3c(c2)OCCN3C)OCc2cnnn2CCCC1=O
i | 3.2 | -2 | -6 | -1.3 | C[C@@H]1CN([C@@H](C)CO)C(=O)c2cccc(NC(=O)Nc3cccc4ccccc34)c2O[C@H]1CN(C)S(C)(=O)=O
i | -2.0 | 0 | 6 | -2.9 | C[C@@H]1CN([C@H](C)CO)C(=O)c2cc(NC(=O)NC3CCCCC3)ccc2O[C@@H]1CN(C)C
i | 1.2 | 6 | 9 | 1.3 | CN(C)CCCNC(=S)N1CCC(C(=O)c2ccc(Cl)cc2)CC1
i | -3.4 | 4 | 4 | -1.1 | O=Nc1ccccn1
i | -3.0 | 1 | 3 | 1.8 | C[C@@H]1CN([C@H](C)CO)C(=O)c2cc(N(C)C)ccc2O[C@H]1CN(C)S(=O)(=O)c1cn(C)cn1
i | -3.2 | 3 | 6 | -3.8 | COc1ccccc1-c1cn(CC[C@H]2CC[C@@H](NC(=O)C3CCOCC3)[C@H](CO)O2)nn1
i | 1.4 | 10 | 14 | 1.9 | OC[C@@H]1CN(CCc2ccccc2)C[C@H](n2cnc3c(N4CCOCC4)ncnc32)O1
i | 0.5 | 1 | 10 | -0.8 | NCC[C@H]1CC[C@@H](NC(=O)NC2CCCCC2)[C@@H](CO)O1
i | -1.8 | 16 | 12 | 0.8 | COC(=O)[C@]12C[C@H](CC(=O)NCC3CCCCC3)C(=O)N(CCC3=CCCCC3)C1=C[C@H](C(C)(C)C)O[C@@H]2C
i | 0.1 | 1 | 12 | -0.6 | Cc1cc([N+](=O)[O-])ccc1P(=O)(O)c1ccc([N+](=O)[O-])cc1C
i | -7.2 | -5 | -7 | -1.3 | Cc1cc(NC(=O)c2ccc(C(C)(C)C)cc2)no1
i | -18 | -2 | 4 | -2.2 | COc1ccc2c3c(n(C)c2c1)[C@@H](CO)N(C(=O)C1CCOCC1)CC31CCN(C(=O)C2CC2)CC1
i | 0.3 | 2 | 8 | 1.4 | COc1ccc(CCNC(=O)CSC2=NS(=O)(=O)c3cc(F)ccc3N2)cc1OC
/ | -2.1 | 15 | 19 | 1.2 | C=CCN=C1NC(c2ccccc2)C(C(=O)OC)=C(C)N1C (centres undefined)
i | 0.0 | -1 | -12 | 2.8 | Cc1cccc(-c2ccc([C@H]3[C@H](CO)N4C(=O)CN(S(=O)(=O)c5cccc(F)c5)C[C@@H]34)cc2)c1
i | -3.5 | 0 | -3 | -0.3 | COCC(=O)N1C[C@@H](C)[C@@H](OC)CN(C)C(=O)c2ccc(NS(C)(=O)=O)cc2OC[C@H]1C
i | -2.9 | -3 | -2 | 0.2 | C[C@@H]1CN([C@H](C)CO)C(=O)c2cc(NC(=O)C3CCCCC3)ccc2O[C@H]1CN(C)S(=O)(=O)c1ccc(Cl)cc1
i | -1.2 | 7 | 3 | -0.6 | COc1ccc(CN(C)C[C@H]2Oc3c(NC(=O)NC(C)C)cccc3C(=O)N([C@@H](C)CO)C[C@H]2C)cc1
i | 2.3 | -3 | 6 | 2.5 | CC(C)(C)c1ccc(S(=O)(=O)NC(=O)C2(C)CCN2C(=O)Cc2cccs2)cc1 (centres undefined)
i | -4.3 | 1 | 6 | 3.8 | c1cnc2c(-c3ccc4nccn4c3)cccc2c1
i | 0.4 | 2 | -5 | -1.2 | CC(C)CC#Cc1cnc2c(c1)C(=O)N([C@H](C)CO)C[C@@H](C)[C@@H](CN(C)C(=O)c1ccc3c(c1)OCO3)O2
i | -4.1 | 7 | 12 | 0.5 | CC(=O)Nc1ccc(NC(=O)N2CCOCC2)cc1
i | 2.3 | -3 | -1 | -0.5 | CC(C)NC(=O)N[C@@H]1CC[C@H](CCn2cc(-c3ccccc3)nn2)O[C@@H]1CO
i | 16 | -6 | 5 | -0.4 | O=C(NCC[C@H]1CC[C@@H](NS(=O)(=O)c2ccc(F)cc2)[C@H](CO)O1)Nc1ccc(F)cc1
i | -1.0 | 1 | 3 | -2.0 | CCC(=O)N[C@H]1C=C[C@@H](CC(=O)NCc2ccc(OC)cc2)O[C@@H]1CO
i | -7.4 | 2 | 11 | -0.3 | CCC(=O)N1CC2(C1)CN(C(=O)Nc1ccccc1F)[C@@H](CO)c1[nH]c3cc(OC)ccc3c12
i | -1.6 | -12 | -10 | 0.7 | Cc1ccc(Cc2c(-c3ccc(C#N)cc3)nc3ccc(C)cn23)cc1
i | -1.6 | 8 | 10 | 5.1 | CN(C(=O)COC(=O)CSc1ccccc1)c1c(N)n(Cc2ccccc2)c(=O)[nH]c1=O
i | 3.0 | 13 | 5 | 3.7 | COc1ccc(C(C(=O)Nc2ccc(F)cc2)N2CCN(c3ccncc3)CC2)cc1 (centres undefined)
i | -0.6 | 2 | -3 | -4.3 | COCC#Cc1ccc([C@@H]2[C@@H](CO)N3CCCCN(C(=O)COC)C[C@H]23)cc1
i | -0.2 | -3 | 5 | -2.1 | Cc1c(NC(=O)c2cccc(NC(=O)Cc3ccccc3Cl)c2)c(=O)n(-c2ccccc2)n1C
i | 0.5 | 2 | 7 | -1.9 | C[C@@H]1CCCCO[C@H](CN(C)S(=O)(=O)c2ccccc2)[C@@H](C)CN([C@@H](C)CO)C(=O)c2cc(NC(=O)c3ccccc3)ccc2O1
i | 12 | 0 | 1 | -1.0 | C[C@@H]1CCCCO[C@@H](CN(C)C(=O)CCCN(C)C)[C@H](C)CN([C@H](C)CO)C(=O)c2cc(NC(=O)Nc3ccccc3)ccc2O1
i | -3.5 | 2 | 9 | -1.9 | CNC(=O)C[C@H]1CC[C@@H]2[C@H](COc3ccc(NC(=O)c4cccc(OC)c4)cc3C(=O)N2C)O1
i | -5.8 | -23 | -59 | 9.8 | COCC(=O)N(C)C[C@H]1Oc2cc(C#CCC3CCCC3)ccc2S(=O)(=O)N([C@H](C)CO)C[C@@H]1C
i | 1.5 | -2 | 3 | 0.5 | COc1ccc(C#Cc2cnc3c(c2)C(=O)N([C@H](C)CO)C[C@H](C)[C@H](CN(C)Cc2ccncc2)O3)cc1OC
i | 1.0 | 0 | 1 | -5.6 | COc1ccc2c3c(n(C)c2c1)[C@@H](CO)N(C(=O)Cc1ccccc1)CC31CCN(C)CC1

At a glance, part of the list above:
FGF22 binding | AF4-AF9 inh | rRNA inh HTS | rRNA inh HTS OD600 | rRNA inh HTS RFP | molecule
i | -1.0 | 3 | -26 | 2.6 | CCOC(=O)C1CCCN(C(=O)c2cccnc2Oc2ccccc2)CC1 (centres undefined)
i | -7.2 | 5 | 0 | -0.6 | COCC(=O)N(C)C[C@H]1Oc2ncc(C#Cc3cccnc3)cc2C(=O)N([C@@H](C)CO)C[C@@H]1C
i | 0.3 | -5 | 2 | -1.6 | CCc1nc2ccc(C(=O)NCCC(C)C)cn2c1N(CC)CCOC
i | 5.5 | -3 | -8 | 3.6 | COc1ccccc1-c1cnc2c(c1)C(=O)N([C@@H](C)CO)C[C@H](C)[C@@H](CN(C)Cc1ccc(F)cc1)O2
i | 0.2 | 10 | 16 | -2.9 | OC[C@@H]1CN(Cc2ccccc2)C[C@H](n2ccc3c(N4CCCC4)ncnc32)O1
i | -0.4 | -1 | -11 | 3.1 | COc1ccccc1-c1cnc2c(c1)C(=O)N([C@H](C)CO)C[C@H](C)[C@H](CN(C)Cc1ccccc1)O2
i | -0.5 | -1 | 15 | -5.1 | COc1cc(NS(=O)(=O)c2ccc(C)cc2)c2c(c1N)C(=O)c1ccccc1C2=O
i | -4.3 | 2 | 3 | 1.4 | CO[C@H]1CN(C)C(=O)c2ccc(NC(=O)CC(F)(F)F)cc2OC[C@H](C)N(S(=O)(=O)c2cn(C)cn2)C[C@H]1C
i | -1.6 | 9 | -3 | 2.3 | COc1ccc(-c2oc3c(c2C(=O)OCCO)C(OCCO)CCC3)cc1 (centres undefined)
i | -0.5 | 2 | -1 | 0.4 | C[C@@H]1CN([C@@H](C)CO)C(=O)CCCn2nncc2CO[C@@H]1CN(C)CC1CC1

(next part)
FGF22 binding | AF4-AF9 inh | rRNA inh HTS | rRNA inh HTS OD600 | rRNA inh HTS RFP | molecule
i | 1.6 | 2 | 10 | 1.3 | COc1ccc2c3c([nH]c2c1)[C@H](CO)N(C(=O)CC1CC1)CC31CN(C(=O)c2ccccc2)C1
i | -1.6 | 1 | 0 | -1.8 | COc1ccc(S(=O)(=O)Nc2ccc3c(c2)C(=O)N([C@H](C)CO)C[C@H](C)[C@H](CN(C)S(=O)(=O)c2c(C)noc2C)OCCCC[C@@H](C)O3)cc1
i | -1.5 | 4 | 7 | -4.8 | C/C=C/c1cnc2c(c1)C(=O)N([C@H](C)CO)C[C@H](C)[C@@H](CN(C)C(=O)NC1CCCCC1)O2
i | 4.6 | -52 | -65 | -6.1 | CC(C)CC#Cc1ccc([C@@H]2[C@@H](CO)N3CCCCN(C(=O)c4ccc5c(c4)OCO5)C[C@@H]23)cc1
i | -2.8 | 15 | 10 | 3.6 | CC1=C(C(=O)N2CCOCC2)CC(CC(=O)NCCN2CCOCC2)C(=O)N1CCC1=CCCCC1 (centres undefined)
